# Screens from PubChem BioAssay.
# Rango release inh: inhibition of RanGTP-driven Rango-importin beta dissociation; hit rate 0.071% among 340,000; O95149+P62826; Biochemical FRET Rango-importin beta, RanGTP-induced dissociation; Potency, µM (top dose mostly 46.1 µM), for inactives: at the top dose activity change, negative = inhibition; active means falling FRET ratio curve, often poorly fitted, with flat reads before Ran was added; inconclusive means other falling curves, or compound fluorescence or quenching; inactive means flat or rising ratio curve;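 further: potency means the concentration at half of the fitted maximal effect; % of control where 0% means no effect; nearly all actives have a fitted effect of over 45% in size; -100% = wells without RanGTP and RCC1; the record marks most hits as doubtful in a second field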
#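 Rango/importin beta premix (0.1/0.25 uM final), PBS + 1 mM DTT + 0.02% Tween-20 + 0.1% BSA; cpd 5 min RT; FRET pre-read; + RanGTP-RCC1 (0.6 uM Ran, 2 mM GTP, 0.2 uM RCC1); 45 min RT; FRET post-read, ex 430, em 486/530 nm.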
# GLA inh pH 4.5: blocks human alpha-galactosidase A at pH 4.5. 230,000 tested, under 10 active. P06280. purified enzyme, 4-MU-alpha-Gal fluorescence, pH 4.5. AID 1467. activity change, negative = inhibition, % at 105 µM; inconclusive = small, poorly fitted or top-dose-only inhibition, or a rising curve; inactive = flat fitted curve, though single readings scatter; no compound was filed as active;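 further: 0% = full activity with enzyme and -100% = basal without enzyme; dose as in the result columns while the protocol names 77 µM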
# Target sequence (P06280 whole entry, looked up): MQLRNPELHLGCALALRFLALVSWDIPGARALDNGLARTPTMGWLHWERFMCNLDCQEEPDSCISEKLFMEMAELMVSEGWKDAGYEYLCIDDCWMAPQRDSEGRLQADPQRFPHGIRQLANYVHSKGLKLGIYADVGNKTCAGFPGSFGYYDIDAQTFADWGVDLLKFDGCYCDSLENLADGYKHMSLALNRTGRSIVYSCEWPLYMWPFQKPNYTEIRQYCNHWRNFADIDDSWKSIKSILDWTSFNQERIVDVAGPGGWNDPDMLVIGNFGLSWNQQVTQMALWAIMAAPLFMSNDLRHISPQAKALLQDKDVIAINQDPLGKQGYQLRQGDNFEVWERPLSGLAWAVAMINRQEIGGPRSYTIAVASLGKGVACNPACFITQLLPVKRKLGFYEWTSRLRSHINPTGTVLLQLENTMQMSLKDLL
# Rango-impB inh: Rango-importin beta binding inhibition; Potency, µM (top dose mostly 92.2 µM), for inactives: top-dose inhibition of complex formation; Rango CFP/YFP FRET sensor + importin beta, 45 min; Q14974; hit rate 0.031% among 340,000; AID 540263; active = rising FRET ratio curve, often small or poorly fitted; inconclusive = mostly compound fluorescence or quenching in the first reads; inactive = flat curves in all reads;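 further: potency means the concentration at half of the fitted maximal effect; 0% = DMSO wells and 100% = buffer wells lacking importin beta; nearly all actives have a fitted effect of over 15% in size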
#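 FRET biosensor Rango (snurportin 1 IBB between N-terminal EYFP and C-terminal Cerulean), 50 nM in PBS/1 mM DTT/0.02% Tween-20/0.1% BSA, preincubated 5 min RT with compound; 0.125 microM importin beta added, 45 min RT, CFP/YFP FRET ratio read.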
# miR-21 FLuc: miR-21 reporter, rising signal | HeLa miR-21 FLuc reporter, luciferase, 48 h | AID 2288 | 340,000 tested, under 10 active | Potency, µM (highest dose often 38.3 µM), without a hit: top-dose reporter change, positive = more light; active = well fitted rising curve with a large enough effect; inconclusive = small, poorly fitted or top-dose-only effect; inactive = no such curve, though single readings can be large or run the other way;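 further: % of control where 0% means no effect; miR-21 action dims this reporter so a rising signal means less miR-21 action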
#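 HeLa miR-21-FLuc reporter line, endogenous miR-21; 2000 cells/well in DMEM/10% FBS; compound titration up to ~40uM final, 48 h, 37 degree Celsius; luciferase detection reagent, 15 min lysis, CCD luminescence.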
# * marks the source's active call; other numbers are inactive results; ? = inconclusive; . = not tested or not shown; & = joins results of further samples. An excerpt; rates above refer to the full screens.
# Order of values: Rango release inh, GLA inh pH 4.5, Rango-impB inh, miR-21 FLuc
CCOC(=O)C1=CN(Cc2cccc(F)c2)S(=O)(=O)NC1CCc1ccccc1 (stereo not given)
 : -9%, ., 2.1%, .
Cn1c(C(=O)N2CCCC(C(=O)NCc3ccc4c(c3)OCO4)C2)cc2sccc21 (stereo not given)
 : -5%, -4, 2.1%, 16%
COc1cccc(Nc2nc3ccc(C(=O)c4ccccc4)cc3n3cnnc23)c1
 : 0%, 0, 3.2%, 8%
COc1ccc(C(=O)NC2CCN(CC(=O)NCc3ccccc3F)CC2)cc1
 : 7%, ., -0.5%, -5%
CCN(c1ccccc1)S(=O)(=O)c1ccc(OC)c(NC(=O)CNCC(C)O)c1 (stereo not given)
 : 4%, 0, 0.8%, 0%
O=C(NC1CCCCC1)C(c1cccnc1)N(C(=O)c1ccc(Cl)nc1)C1CCCCC1 (stereo not given)
 : 7%, -3, -1.6%, 0%
CN(Cc1ccccc1)S(=O)(=O)c1ccc(OCC(=O)NCc2ccccn2)cc1
 : -9%, ., -2.9%, 0%
O=c1[nH]n2c(=O)c3c([nH]c2c1N=Nc1cccc(Cl)c1)CCC3
 : 7%, 2, 4.2%, -21%
O=C(CCN1C(=O)C2CC=C(Cl)CC2C1=O)Nc1ccccc1O (stereo not given)
 : -10%, -3, -0.4%, -4%
Nc1ccc2nc(-c3cccc(-c4nc5ccc(N)cc5[nH]4)c3)[nH]c2c1
 : 4%, ., 7.0%, 6%
Cc1csc(SCC(=O)Nc2nncs2)n1
 : 24%, ., -2.1%, -3%
CC(C)n1ncc2c(C(=O)N3CCN(c4ccc(F)cc4)CC3)cc(-c3ccccc3)nc21
 : 6%, ., -0.5%, .
COc1ccc(N=C2NN=C(c3ccc4c(c3)OCCO4)CS2)cc1
 : 14%, -1, -4.9%, -25%
Cc1ccc(S(=O)(=O)NCCC(=O)Nc2cccc(S(N)(=O)=O)c2)cc1C
 : 3%, ., -2.3%, -1%
COc1ccc(/C=C2\SC(=S)N(CCCC(=O)N3CCOCC3)C2=O)cc1
 : -4%, ., -3.4%, .
Cc1nc2ccc(Br)cc2c(-c2ccccc2)c1C(=O)O
 : 7%, ., -3.3%, -3%
COc1cccc(/C=C/C(=O)NNC(=O)c2cc(C)oc2C)c1
 : 11%, ., -1.3%, .
COc1ccc(C(=O)NNC(=O)C2CCN(S(=O)(=O)c3ccc(C)cc3)CC2)cc1
 : -11%, 2, -4.9%, 5%
CC1CCCCN1Cc1ccc(-c2nn[nH]n2)cc1 (stereo not given)
 : 1%, -9, -0.1%, -3%
CC(C)CN1C(=O)c2ccc(C(=O)Nc3ccc(O)cc3C(=O)O)cc2C1=O
 : 18%, ., 2.4%, 0%
Cc1ccc(S(=O)(=O)CCC(=O)OCC(=O)c2ccc(C)c(C)c2)cc1
 : -22%, -7, -2.5%, -15%
CC(=O)N1c2ccc(S(=O)(=O)N3CCC(C(=O)N4CCN(c5ccccc5F)CC4)CC3)cc2CC1C (stereo not given)
 : -20%, ., 0.2%, 19%
Cc1ccc(NC(=O)Cn2c(=O)oc3ccccc32)cc1
 : -4%, -1, 0.2%, 0%
COc1ccc(C2c3c(oc4ccccc4c3=O)C(=O)N2c2ccccn2)cc1OC (stereo not given)
 : 10%, -15, 2.8%, -24%
O=C(CCc1ccccc1)NNC(=O)c1ccccn1
 : -15%, 4, -1.8%, 21%
Cc1noc(C)c1C(=O)N1CCN(Cc2ccc3c(c2)OCO3)CC1
 : 6%, 1, 2.0%, -9%
CC1CCC2(CC1)NC(=O)N(Cc1nnc(-c3cccs3)o1)C2=O (stereo not given)
 : -3%, -1, -4.2%, -1%
CC1Nc2nc(NC(=O)C(C)(C)C)[nH]c(=O)c2N(C)C1C (stereo not given)
 : 16%, -2, -0.3%, -3%
COc1ccc(CCNC(=O)c2c(O)c3c([nH]c2=O)CCCC3)cc1OC
 : -1%, ., -1.5%, .
NNC(=O)Cn1nc2n(c1=O)-c1ccccc1SC2
 : 0%, -5, 0.1%, -1%
Cc1nn(Cc2cccc(F)c2)c(C)c1NC(=O)c1ccc(COc2ccccc2Cl)cc1
 : -9%, -15, -0.5%, ?
COc1ccc(-n2c(SCC(=O)O)nc3sc4c(c3c2=O)CCC4)cc1
 : -10%, 5, 1.1%, 6%
COc1ccc(-n2nc3c(c2NC(=O)COc2ccccc2)CS(=O)C3)cc1 (stereo not given)
 : 5%, ., 0.4%, -1%
CCOC(=O)C1CCN(C(=O)Cn2nc(C)n3c(cc4cc(F)ccc43)c2=O)CC1
 : 0%, ., -3.3%, 1%&0%
CCCC(=O)Nc1ccc(Cl)c(NC(=O)CC)c1
 : -2%, -7, -3.4%, -3%
Cn1cccc1C(=O)NC(=O)COC(=O)c1ccc(S(C)(=O)=O)c([N+](=O)[O-])c1
 : 4%, ., -0.4%, .
Cc1cc(C(=O)Nc2ccc(Br)cc2)c2ccccc2n1
 : 6%, ., 9.0%, 1%
O=C(CSc1nccn(-c2ccc(Br)cc2)c1=O)NCc1ccccc1
 : 0%, ., -0.4%, .
CC1CCN(CC(O)COc2ccc(OCC(O)CN3CCC(C)CC3)cc2)CC1 (stereo not given)
 : 8%, ., -0.6%, 0%
Cc1nn(CC(=O)O)c(C)c1NC(=O)c1cccs1
 : -27%, ., -1.0%, 2%
CCN(CC)C(C)C(=O)NCC1(c2ccccc2)CCOCC1 (stereo not given)
 : 2%, 3, 0.3%, -1%
NCCCC[C@@H](C(=O)N1CCNCC1)n1cc([C@@H](N)CC(N)=O)nn1
 : 24%, ., -2.4%, .
CC(=O)NC1C(O)OC(CO)C(O)C1O (stereo not given)
 : -4%, ., -4.8%, .
O=C(Nc1ccc(-c2cn3ccccc3n2)cc1)c1ccc(Cl)cc1
 : 16%, 4, 0.4%, -6%
CNC(=S)N1N=C(c2ccccc2)CC1c1ccc(Br)cc1 (stereo not given)
 : -11%, 3, 1.9%, -24%
CSc1ccc(Cl)c(C(=O)N(C)CC(=O)Nc2ccc(N3CCOCC3)cc2)c1
 : 10%, ., -0.4%, .
Cc1cc(C)c2ccc(C(=O)O)nc2c1O
 : 13%, 10, -0.1%, 2%
CC(=O)NC1CC2CCCC(C1)N2S(=O)(=O)c1cccc(F)c1 (stereo not given)
 : 0%, 10, 0.0%, 2%
O=C(CSC(=S)N1CCCC1)NCC(=O)Nc1ccc(F)c(F)c1
 : 2%, ., 0.3%, -1%
Cc1oc(-c2cccc(Cl)c2)nc1CS(=O)(=O)CC(=O)NCCCN1CCOCC1
 : ?, ., 0.5%, -4%
O=C(Nc1ccccc1)Nc1ccc(Br)c(Cl)c1
 : -17%, -2, 2.4%, 20%
COc1ccc(CCNC(=O)COC(=O)c2cccn2C)cc1
 : 1%, ., -1.2%, .
CCC(=O)c1cn(CC(=O)Nc2cc(C)ccc2C)c2ccccc12
 : 1%, ., 0.6%, 0%
CN(Cc1ccccc1)C(=O)c1nc2ccccn2c1CNCCCOc1cccnc1
 : -17%, 3, 0.1%, -11%
CCOC(=O)N/N=C(/C)c1cccc(-n2cnnn2)c1
 : -12%, 7, 1.1%, 0%
CCc1nnc(NC(=O)CSc2nnc(-c3ccc(O)cc3)n2C)s1
 : -14%, 2, -0.1%, -2%
NC(=O)NCCN1CCN(c2ncc(C(F)(F)F)cc2Cl)CC1
 : -5%, -5, 5.4%, 4%
COC(=O)CC1c2cc(OC)c(OC)cc2CC(=O)c2cc(OC)c(OC)cc21 (stereo not given)
 : 12%, 7, 0.3%, -6%
CN1CCN(C(=O)CCc2ncc(C(F)(F)F)cc2Cl)CC1
 : -16%, -4, -2.8%, 2%
CN1C(=S)N(c2ccccc2)C(=O)/C1=C/c1cccs1
 : 1%, -2, ?, -12%

# Arranged by molar mass (descending): 4 of the compounds above
# Order of values: Rango release inh, GLA inh pH 4.5, Rango-impB inh, miR-21 FLuc
CN(Cc1ccccc1)C(=O)c1nc2ccccn2c1CNCCCOc1cccnc1
 : -17%, 3, 0.1%, -11%
CCOC(=O)C1CCN(C(=O)Cn2nc(C)n3c(cc4cc(F)ccc43)c2=O)CC1
 : 0%, ., -3.3%, 1%&0%
CNC(=S)N1N=C(c2ccccc2)CC1c1ccc(Br)cc1 (stereo not given)
 : -11%, 3, 1.9%, -24%
CC(=O)NC1CC2CCCC(C1)N2S(=O)(=O)c1cccc(F)c1 (stereo not given)
 : 0%, 10, 0.0%, 2%

# Part of the list above, with the structure last:
Rango release inh | GLA inh pH 4.5 | Rango-impB inh | miR-21 FLuc | structure
16% | 4 | 0.4% | -6% | O=C(Nc1ccc(-c2cn3ccccc3n2)cc1)c1ccc(Cl)cc1
-11% | 3 | 1.9% | -24% | CNC(=S)N1N=C(c2ccccc2)CC1c1ccc(Br)cc1 (stereo not given)
10% | . | -0.4% | . | CSc1ccc(Cl)c(C(=O)N(C)CC(=O)Nc2ccc(N3CCOCC3)cc2)c1

# Carrying on:
# Order of values: Rango release inh, GLA inh pH 4.5, Rango-impB inh, miR-21 FLuc
CC(=O)Nc1ccc(Oc2cc(NC(C)=O)cc([N+](=O)[O-])c2)cc1
 : 7%, -3, 2.5%, -2%
O=C(Cn1cnc2c(nnn2-c2cccc(Cl)c2)c1=O)N1CCCC1
 : 0%, -4, -0.6%, 4%
CC(c1cccs1)N(Cc1ccco1)C(=S)Nc1ccccc1Cl (stereo not given)
 : 29%, 6, -4.5%, 22%
COC(=O)c1ccc(CNS(=O)(=O)c2ccc3ccccc3c2)cc1
 : 0%, ., 0.9%, 8%
CC(=O)c1c(N2CCOCC2)nc(=S)n(-c2ccccc2)c1C
 : -7%, 8, -1.2%, -1%
Cc1cccc(N(CC(=O)Nc2ccccc2F)S(C)(=O)=O)c1
 : 9%, -2, -1.2%, -3%
NC(=O)C1(N2CCCCC2)CCN(CC(=O)Nc2ccc(Oc3ccccc3)cc2)CC1
 : -6%, 7, -0.6%, 13%
CS(=O)(=O)N1CCN(c2ccccc2NC(=O)c2ccco2)CC1
 : 0%, -27, -1.3%, -1%
Cc1ccc(O)c(C(=O)c2cc(C(=O)NCCc3ccccc3)c(=O)n(CCc3ccccc3)c2)c1
 : ?, -3, ?, 10%
Cc1ccc(C(=O)Nc2ccc3c(c2)OCCO3)c(C)c1
 : 0%, ., 1.1%, ?
Cc1ncc(CO)c(/C=N/NC(=O)c2ccccc2Br)c1O
 : ?, 2, ?, -2%
OC[C@H](O)[C@H](O)[C@@H](O)[C@@H](O)[C@@H]1SC(c2ccccc2)=NN1c1ccccc1
 : -7%, 3, -6.4%, -3%
C=CCNC(=O)/C(=C\c1ccco1)NC(=O)c1ccco1
 : 9%, ., -4.4%, -1%
CN(CC(=O)Nc1ccccc1Cl)CC(=O)N(C)c1c(N)n(Cc2ccccc2)c(=O)[nH]c1=O
 : -7%, ., -3.5%, .
CCOc1ccc(CN(CCC#N)C(=S)NC(=O)c2ccccc2)cc1
 : 19%, 0, 0.4%, -6%
CCC(C)[C@H](NC(=O)[C@H](Cc1ccccc1)n1c(=O)[nH]c2ccccc2c1=O)C(=O)N1CCC[C@@H]1C(=O)O (stereo not given in full)
 : -9%, ., -1.5%, 0%
Cc1ccc(Nc2cc(C)nc3nnnn23)cc1
 : 5%, -2, 0.0%, -6%
CCNS(=O)(=O)c1ccc2c(c1)n(C)c(=O)n2C
 : -3%, 1, ?, -1%
O=C(c1ccc(Cl)cc1)N(Cc1ccccc1F)N1C(=O)CCCC1=O
 : 14%, 4, 3.9%, -4%
C/C(=N\NC(=O)c1ccc(N2CCCC2=O)cc1)c1ccc(O)cc1O
 : ?, ., ?, -1%
Cc1cccc2cc(C#N)c(SCC#N)nc12
 : ?, -1, ?, -6%
COc1ccc(OC)c(S(=O)(=O)N2CCCC(C(=O)NCCN3CCOCC3)C2)c1 (stereo not given)
 : -6%, ., -3.6%, 8%
Cc1ccc(OCC(=O)Nc2ccc(N3CCN(C(=O)c4ccc(C)cc4)CC3)cc2)cc1
 : -8%, -15, -3.6%, -1%
CCn1nc(C)c(C2C(C#N)=C(N)OC3=C2C(=O)CC(C)(C)C3)c1C (stereo not given)
 : -7%, 1, 0.0%, 5%
